Sa ugtP lethal: growth inhibition of S. aureus ugtP deletion strain | S. aureus RN4220 ugtP deletion, OD600 growth, 16 h; some inactives read as strong as hits | growth inhibition, % (concentration not given with the values) | 330,000 compounds, 0.54% hits | AID 1259309;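 active means z-score under -3 and OD600 up to 0.15 on both plates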;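 further: plate controls were untreated wells for no effect and antibiotic for full effect; wells of about 80 µL received 100 nL stock; the first replicate is given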
BJeLR lethal: BJeLR cell viability loss; BJeLR (HRASV12) viability, CellTiter-Glo ATP luminescence, 48 h; reference of the scale not given here; inhibition, % (concentration not given with the values); 300,000 compounds, 0.17% hits;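 active means replicate mean above 50%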;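 further: 50 nL library stock added to about 25 µL; numbers are from one replicate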
Mtb hypoxia inh: reduces hypoxia-regulated biosensor signal in M. tuberculosis; 300,000 compounds, 0.1% hits; AID 1159583; fluorescence inhibition, % (test concentration not listed); M. tuberculosis hypoxia-regulated fluorescent reporter, fluorescence;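 active means 35 to 45% if threefold the growth effect, above 45% if 1.5-fold the growth effect; inactive means the rest, general growth blockers included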;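 further: wells of about 50 µL received 100 nL stock; 0% = vehicle wells and 100% = reference inhibitor wells; whole bacteria with a GFP reporter of the hypoxia response; strong numbers were not always called active; many hits fall short of the cut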
PrP UTR inh: suppresses PrP 5' UTR mRNA reporter expression; cell-based PrP 5' UTR mRNA reporter, plate reader; inhibition, % (test concentration not listed); 340,000 compounds, 0.35% hits; AID 488862;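 active means every replicate at 50% or more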;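 further: 0 = median of the neutral control wells; tested in H4 reporter cells; numbers are from one replicate; inactives centre near -14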
Autofluor counter: compound fluorescence in toxin protease inhibitor counterscreen | compound autofluorescence counterscreen, microsphere flow cytometry; hits give high values | fluorescence intensity (no concentration beside the values) | 360,000 compounds, 3.1% hits | AID 624483;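 active means at least 3 SD above the mean of all compounds, about 16000 in these data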;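 further: 100 nL of 1 mM stock went into each well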
RN4220 kill: S. aureus RN4220 growth inhibition | inhibition, % (concentration not given with the values) | OD600, 16 h | 330,000 compounds, 0.33% hits;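 active means z-score of -3 or lower and OD600 up to 0.18 on both plates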;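 further: plate controls were untreated cells for no effect and reference antibiotic for full effect; stock transfer was 100 nL into about 80 µL; one replicate is shown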
Mtb hypoxia inh growth: also measured in Mtb hypoxia inh; calls as there; growth inhibition, %; measured here: M. tuberculosis growth (absorbance);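 0% = vehicle and 100% = reference antibiotic; read after six days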
The depositor's hits bear a star; / = no result given.

Order of values: Mtb hypoxia inh growth, RN4220 kill, Mtb hypoxia inh, Autofluor counter, BJeLR lethal, PrP UTR inh, Sa ugtP lethal
> O=C(Cn1[nH]c(=O)c2ccccc2c1=O)NCc1cccnc1
 : 5, 3.5, 5, 3952, 1, -9, -7
> COC(=O)/C=C1\S/C(=N/N=C/c2ccco2)NC1=O
 : /, /, /, 2721, 6, -9, /
> CCOc1ccc(S(=O)(=O)n2cnc(C)c2)cc1
 : 7, 1.1, 15, 3746, -6, -38, 3
> CC(C)N=C(Nc1ccc(Cl)cc1)c1cccnc1
 : 6, 3.7, 4, 9415, -2, -34, -3
> CC(OC(=O)c1cc(=O)c2ccccc2o1)C(=O)Nc1ccc(N(C)C)cc1 (configuration not stated)
 : 1, -0.5, -3, 3017, /, -6, 3
> CC(=O)N(Cc1c(C)nn(-c2ccccc2)c1Cl)c1ccc(Cl)cc1
 : -2, 2.1, 4, 4540, -2, -29, -1
> COc1ccc(C2=NOC(C)(c3nnc(-c4ccncc4)o3)C2)cc1 (configuration not stated)
 : 10, 3.5, 9, 3601, 0, 3, 0
> O=S(=O)(NCc1ccccc1)c1ccc(-n2cccn2)cc1
 : 6, 2.0, -4, 4810, -1, -12, -1
> CN(CCC(=O)Nc1ccc(Cl)cc1)Cc1ccccc1
 : -1, -0.3, -6, 3724, -12, -5, -8
> Cc1ccc(C(=O)NCC(=O)NCc2cc(=O)n(C)c(=O)n2C)cc1C
 : 1, 2.0, 2, 5496, 2, -18, 10
> COCCNc1c2c(nc3c(-c4ccccc4)c(C)nn13)CCCC2
 : 17, 1.8, -1, 23437*, -13, -14, 2
> Brc1ccc2c(c1)OCCOCCOCCOCCOCCO2
 : 7, -1.0, 4, 2185, 0, -17, 2
> Fc1ccc(Nc2nc(N/N=C/c3ccco3)nc(N3CCCCC3)n2)cc1
 : /, /, /, 5481, 1, -11, /
> CCc1nc(NCCN2CCOCC2)c(C#N)c2c1CCCC2
 : /, 0.2, /, 3831, 0, 0, 5
> CCOC(=O)C1CCN(c2c(-c3ccccc3)c3cc(Cl)ccc3[nH]c2=O)CC1
 : 13, 2.9, 6, 2630, 5, -17, -19
> O=C(COC(=O)c1cccc(S(=O)(=O)N2CCCCC2)c1)NC1CCCCC1
 : -9, 2.4, -10, 8666, /, -2, -1
> N#Cc1c(NC(=O)c2ccccc2)sc2c1CCCCC2
 : -3, 27, -1, 2445, 5, -24, 10
> O=C(COC(=O)c1ccc(F)c(S(=O)(=O)N2CCOCC2)c1)Nc1ccc2c(c1)OCO2
 : 6, 1.4, -2, 6027, /, -4, 6
> CCOc1ccc(NC(=O)CSc2nc3cccnc3n2CC)cc1
 : /, -11, /, 3789, 10, -23, 12
> Cc1c(C(=O)N2CCCCC2)c(S(=O)(=O)N2CCN(c3ccccc3F)CC2)c(C)n1C
 : 0, 3.6, 17, 6026, 4, -4, 7
> CCN(CC)S(=O)(=O)c1ccc(N=N/C(C(C)=O)=C(/C)O)cc1
 : /, 4.4, /, 2181, -4, -21, 12
> COCCn1c(-c2ccc(OC)cc2)cnc1SCC(=O)Nc1ccc(OC)cc1OC
 : 2, 2.9, 15, 1952, -2, -14, 4
> CC/C(C)=N\N=C\c1c(O)n(CC)c2cc(C3=NNC(=O)CC3)ccc12
 : /, /, /, 2892, -4, -30, /
> CN1C2CCC1CC(NC(=O)c1cc(Cl)cc3[nH]cnc13)C2 (configuration not stated)
 : 5, 2.9, 6, 4137, -2, -15, 10
> COC(=O)[C@H](CCSC)NC(=O)N1CCC(C)CC1
 : 1, 2.9, 3, 11211, 10, 0, 3
> O=C1C=C(O)C(n2cncn2)C(c2ccc3c(c2)OCO3)C1 (configuration not stated)
 : -2, 1.3, 8, 4870, 2, -5, 1
> Cc1cccc(NC(=O)c2cccnc2Oc2ccccc2)c1C(=O)O
 : -9, 0.6, 4, 2938, 13, -3, -3
> COc1ccc(-n2ccnc(SCC(=O)NCc3ccc(C)cc3)c2=O)cc1Cl
 : 0, 4.6, 6, 5849, 15, -24, 7
> O=c1[nH][nH]c(=O)c(Cl)c1Cl
 : 4, 2.3, 0, 3551, /, 3, -1
> CCCC(O)(c1ccc(OC)cc1)C(CN(C)C)c1ccccc1 (configuration not stated)
 : 6, 3.4, 11, 11011, -4, -14, 2
> COC(=O)c1nn(-c2ccc(F)cc2)ccc1=O
 : 6, 2.5, 3, 3952, -17, -5, 7
> Cc1cc(NC(=O)c2ccc3nccnc3c2)ccc1Br
 : 1, -0.1, -3, 8081, /, -48, -8
> C=CCN1C(=O)C(CC(=O)NCC)SC1=Nc1ccccc1OC (configuration not stated)
 : 0, 0.6, 3, 3951, -4, -16, 0
> O=C(/C=C/c1ccccc1Cl)N1CCCN(C(=O)/C=C/c2ccccc2Cl)CC1
 : 7, 7.7, 8, 7064, 3, -21, -33
> CN(CC(=O)OCC(N)=O)S(=O)(=O)c1ccc(Cl)cc1
 : 9, 1.9, 13, 3563, -1, -20, 3
> CCOC(=O)c1cn(CC)c2cc(F)c(F)cc2c1=O
 : -4, 1.6, 9, 5870, -6, -19, 2
> Cc1ccccc1N(CC(=O)NN=Cc1cc(Br)c(C)o1)S(C)(=O)=O
 : 2, 8.5, 2, /, /, /, -3
> CCOC(=O)Nc1ccc2c(c1)C(=NNC(N)=S)c1ccccc1-2
 : 4, 9.1, 7, 3252, /, -21, -12
> CCC(=O)N1CCN(c2ccccc2NC(=S)NC(=O)c2ccco2)CC1
 : -3, 3.4, 1, 6218, -12, -7, 9
> COc1ccc(Cl)cc1-n1c(C)cc(C=O)c1C
 : /, 7.7, /, 2647, -6, -12, 2
> Cn1nnnc1SCC(=O)NCC(=O)c1ccccc1
 : 2, 1.4, 1, 13399, /, -7, 4
> O=C(CN(Cc1ccccc1Cl)C(=O)CNS(=O)(=O)c1ccc(F)cc1)NCC1CCCO1 (configuration not stated)
 : 7, -1.3, 6, 3064, -4, -9, -3
> C=CCOc1cccc(C2c3c(oc4ccccc4c3=O)C(=O)N2c2ccccn2)c1 (configuration not stated)
 : /, 0.6, /, 6028, 6, 5, 15
> CS(=O)(=O)Nc1ccc(C2=NN(C(=O)CCCC(=O)O)C(c3cccs3)C2)cc1 (configuration not stated)
 : 8, -3.4, 4, 4361, -23, -62, 9
> COc1ccc2[nH]c(=O)c(CN(CCO)S(=O)(=O)c3c(C)ccc4nsnc34)cc2c1
 : 4, 2.8, 1, 4360, -2, -9, 0

Limited to RN4220 kill and PrP UTR inh, for 2 of the compounds above:
Structure,RN4220 kill,PrP UTR inh
Cc1ccccc1N(CC(=O)NN=Cc1cc(Br)c(C)o1)S(C)(=O)=O,8.5,/
CCOC(=O)Nc1ccc2c(c1)C(=NNC(N)=S)c1ccccc1-2,9.1,-21

New compounds follow
Order of values: Mtb hypoxia inh growth, RN4220 kill, Mtb hypoxia inh, Autofluor counter, BJeLR lethal, PrP UTR inh, Sa ugtP lethal
> CCOC(=O)Cn1nc(C)n(-c2c(C)cccc2C)c1=O
 : 3, 8.8, 3, 3968, 5, -15, 5
> O=C(COc1ccccc1)N1CCN(S(=O)(=O)c2ccc(Cl)cc2)CC1
 : 4, 2.3, 11, 8187, -7, -25, 2
> N#Cc1nc(COc2ccccc2F)oc1NCc1ccc(F)cc1
 : 1, 6.9, 1, 5324, -3, -45, -10
> COc1ccc(N2CCN(C(=O)c3ccc4c(=O)n(CC5CCCO5)c(=O)[nH]c4c3)CC2)cc1 (configuration not stated)
 : 9, 4.3, 19, 3476, -4, -11, 14
> COc1ccccc1N1CCN(S(=O)(=O)c2ccc(NC(C)=O)cc2)CC1
 : 5, 1.2, 8, 4431, 1, -21, 3
> Cc1ccc(SC(CC(=O)c2ccc(C(C)(C)C)cc2)C(=O)O)cc1 (configuration not stated)
 : /, /, /, 4219, -4, -9, /
> CCN1C(=O)N(CC)C2C1N(CO)C(=O)N2CO (configuration not stated)
 : 12, 3.8, 4, 3994, -4, -16, 1
> COC(=O)c1cc2nc(-c3ccc(OC)c(OC)c3)cc(C(F)(F)F)n2n1
 : /, 1.3, /, 4900, /, -11, 5
> O=C(Nc1ccc(C(=O)O)cc1)/C(=C\c1ccc2c(c1)OCO2)NC(=O)c1ccco1
 : -1, 6.2, -5, 4412, 0, -31, 13
> O=C(Nc1ccccc1F)C(=Cc1sc(N2CCOCC2)nc1-c1ccccc1)C(=O)Nc1ccccc1F
 : 0, 5.2, -4, 3262, -5, -18, -2
> Nc1c(Cl)cc(-c2cn(CCC(=O)O)c(-c3ccncc3)n2)cc1Cl
 : 3, -3.7, 2, 3365, /, -14, -3
> O=C(COC(=O)Cc1ccc(Cl)cc1)NCCc1ccccc1
 : 4, 5.1, 4, 2869, /, 2, -3
> CCOc1ccccc1CNC(=O)CCCn1ncn2c(cc3occc32)c1=O
 : -7, 5.0, 3, 4750, 1, 4, 4
> CCc1cc(=O)oc2cc(C)cc(OC(C)C(=O)NC3CCN(Cc4ccccc4)CC3)c12 (configuration not stated)
 : 5, 1.2, 1, 7545, -1, -2, 5
> Cc1nc(-c2cccc(NS(=O)(=O)c3cccc4ccccc34)c2)cs1
 : 2, 9.4, 4, 22200*, 5, -27, 13
> Cc1ccccc1C(=O)Nc1ccccc1-c1nnn(CC(=O)Nc2ccc3c(c2)OCCO3)n1
 : 3, 2.1, 5, 13670, 0, -2, 5
> COc1ccc(N/C=C2/Sc3ccccc3NC2=O)cc1
 : -3, 4.6, 15, 2562, 0, -33, -3
> O=C(CSc1n[nH]c(-c2cccnc2)n1)Nc1ccc([N+](=O)[O-])cc1Br
 : -1, 8.2, -19, 4174, -6, -9, 11
> CCOC(=O)C1=C(COC(=O)CC(C)c2ccccc2)NC(=O)NC1C (configuration not stated)
 : -1, 2.1, -1, 6072, /, -31, 8
> CC(=O)c1ccc(N2CCN(C(=O)CCCc3nc4ccccc4s3)CC2)cc1
 : 14, 1.2, -26, 2138, -1, -12, 0
> COc1ccccc1/C=C/C(=O)c1ccc(Cl)cc1
 : 15, 4.7, 23, 24068*, 4, -7, 13
> O=C(NC(=S)Nc1ccc2cn[nH]c2c1)c1ccccc1
 : 7, 2.4, 2, 4344, -6, -23, 7
> COc1ccccc1CNC(=O)COC(=O)c1ccc(S(=O)(=O)N2CCCC2)cc1
 : /, 2.8, /, 2844, 1, -23, 5
> COc1ccc2nc(NC(=O)Cn3cnc4ccccc4c3=O)sc2c1
 : 6, 3.6, -6, 4180, -2, -21, -1
> COc1cc(NC(=O)c2ccc3nsnc3c2)cc(OC)c1OC
 : 8, -0.1, 7, 6176, 8, 14, 1
> COc1ccc(NC(=O)c2[nH]ncc2[N+](=O)[O-])cc1
 : 5, 7.2, 3, 3168, 2, -35, 4
> Cc1nn(-c2ccccc2)c(C)c1C(=O)OCC(=O)NC(=O)NC1CCCC1
 : 7, 2.6, 9, 3176, 11, -15, -4
> CCCCCC(=O)NNC(=S)NC(=O)c1ccc([N+](=O)[O-])cc1
 : 5, 20, -1, 3098, 2, -12, 3
> O=C(CN1CSCC1=O)N1CCN(S(=O)(=O)c2cccc(F)c2)CC1
 : -1, -2.4, -2, 3844, /, -5, -3
> COc1ccc(NC(=O)CS(=O)CC(=O)NCc2cccc(C(F)(F)F)c2)cc1 (configuration not stated)
 : 1, 6.6, 10, 10696, -2, -34, -4

Single records, as listed above. Order of values: Mtb hypoxia inh growth	RN4220 kill	Mtb hypoxia inh	Autofluor counter	BJeLR lethal	PrP UTR inh	Sa ugtP lethal
CCCCCC(=O)NNC(=S)NC(=O)c1ccc([N+](=O)[O-])cc1 in the list: 5	20	-1	3098	2	-12	3
COc1ccccc1/C=C/C(=O)c1ccc(Cl)cc1 in the list: 15	4.7	23	24068*	4	-7	13
